# Rango-impB inh – qHTS Assay for Inhibitors of Rango (Ran-regulated importin-beta cargo) - Importin beta complex formation | Importin subunit beta-1 (Homo sapiens), Q14974 | Rango CFP/YFP FRET sensor + importin beta, 45 min | Potency, µM (top dose mostly 92.2 µM), without a hit: at the top dose inhibition of complex formation | hit rate 0.031% among 340,000 | AID 540263, 2011; active = rising FRET ratio curve, often small or poorly fitted; inconclusive = mostly compound fluorescence or quenching in the first reads; inactive = flat curves in all reads;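 further: potency means the concentration at half of the fitted maximal effect; 0% = DMSO wells and 100% = buffer wells lacking importin beta; nearly all actives have a fitted effect of over 15% in size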
#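 Inhibition scored from the CFP 486 nm/YFP 530 nm FRET ratio 45 min after adding 0.125 microM importin beta to 50 nM Rango biosensor preincubated 5 min with compound (room temperature, PBS with DTT, Tween-20, BSA). No-importin wells as positive control.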
# Rango release inh – qHTS Assay for Inhibitors of RanGTP induced Rango (Ran-regulated importin-beta cargo) - Importin beta complex dissociation. Biochemical FRET Rango-importin beta, RanGTP-induced dissociation. Potency, µM (series often up to 46.1 µM), for inactives: at the top dose activity change, negative = inhibition. hit rate 0.071% among 340,000; active means falling FRET ratio curve, often poorly fitted, with flat reads before Ran was added; inconclusive means other falling curves, or compound fluorescence or quenching; inactive means flat or rising ratio curve;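 further: potency means the concentration at half of the fitted maximal effect; % of control where 0% means no effect; nearly all actives have a fitted effect of over 45% in size; -100% = wells without RanGTP and RCC1; the record marks most hits as doubtful in a second field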
#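 Two FRET readings bracket the reaction: one 5 min after compound meets Rango–importin beta, another 45 min after RanGTP-RCC1 (0.6 uM Ran, 0.2 uM RCC1, 2 mM GTP) is added. Only the second defines inhibition.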
# GLA inh pH 4.5 – qHTS Assay for Inhibitors of Human alpha-Galactosidase at pH 4.5; Alpha-galactosidase A (Homo sapiens), P06280; purified enzyme, 4-MU-alpha-Gal fluorescence, pH 4.5; activity change, negative = inhibition, % at 105 µM; 230,000 tested, under 10 active; AID 1467, 2008; inconclusive = small, poorly fitted or top-dose-only inhibition, or a rising curve; inactive = flat fitted curve, though single readings scatter; no compound was filed as active;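 further: 0% = full activity with enzyme and -100% = basal without enzyme; dose as in the result columns while the protocol names 77 µM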
# Target sequence (P06280 whole entry, looked up): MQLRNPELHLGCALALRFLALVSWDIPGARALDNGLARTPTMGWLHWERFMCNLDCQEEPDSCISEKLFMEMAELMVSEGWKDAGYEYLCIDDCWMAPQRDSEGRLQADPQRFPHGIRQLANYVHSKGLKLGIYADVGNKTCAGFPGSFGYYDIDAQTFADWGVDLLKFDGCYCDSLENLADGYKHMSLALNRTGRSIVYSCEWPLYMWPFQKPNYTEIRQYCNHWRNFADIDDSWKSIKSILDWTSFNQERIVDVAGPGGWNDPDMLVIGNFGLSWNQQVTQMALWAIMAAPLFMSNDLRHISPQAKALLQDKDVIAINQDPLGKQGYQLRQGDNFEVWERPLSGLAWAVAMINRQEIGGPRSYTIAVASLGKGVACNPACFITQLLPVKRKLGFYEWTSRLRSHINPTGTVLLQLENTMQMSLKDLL
# miR-21 reporter – qHTS Assay for Modulators of miRNAs and/orActivators of miR-21; HeLa miR-21 FLuc reporter, luciferase, 48 h; Potency, µM (titrated, usually from 38.3 µM), inactives show at the highest dose reporter change, positive = more light; 340,000 tested, under 10 active; active = well fitted rising curve with a large enough effect; inconclusive = small, poorly fitted or top-dose-only effect; inactive = no such curve, though single readings can be large or run the other way;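 further: % of control where 0% means no effect; miR-21 action dims this reporter so a rising signal means less miR-21 action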
#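 HeLa miR-21-FLuc reporter line, endogenous miR-21; 2000 cells/well in DMEM/10% FBS; compound titration up to ~40uM final, 48 h, 37 degree Celsius; luciferase detection reagent, 15 min lysis, CCD luminescence.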
# Starred values were filed as active, the others as inactive; ? = inconclusive; . = not tested or not shown. A portion of the library; the hit share may differ from the screen's.
Rango-impB inh	Rango release inh	GLA inh pH 4.5	SMILES	miR-21 reporter
1.6%	-14%	4	COC(=O)c1ccc(CSc2nnc(-c3c[nH]c4ccccc34)n2-c2ccccc2)cc1	17%
-0.5%	-5%	.	COc1ccc(NC(=O)CN(c2ccc(OC)c(Cl)c2)S(=O)(=O)c2ccccc2)c(OC)c1	14%
1.4%	1%	.	O=C(Nc1ccccc1)C1CCN(S(=O)(=O)c2cccs2)CC1	.
0.2%	12%	.	O=C(Nc1cccc(-n2cnnn2)c1)c1ccc(C(F)(F)F)cc1	.
-0.8%	-4%	-3	CC(=O)N1CCC[C@H]1C(=O)O	0%
-0.5%	-8%	-9	COc1ccc(N(C)S(=O)(=O)c2cccc(C(=O)NCC3CCCCC3)c2)cc1	-1%
3.0%	-9%	2	Cn1c(=O)c([N+](=O)[O-])c(NC2CCS(=O)(=O)C2)c2ccccc21 (stereo unspecified)	3%
12%	-12%	.	COc1ccc(OC)c(NC(=O)CSc2nc3n[nH]c(C)c3c(=N)n2-c2cccc(Cl)c2C)c1	3%
0.0%	-11%	.	COc1ccc(NC(=O)CN(c2ccccc2OC)S(=O)(=O)c2cccs2)cc1Cl	.
0.3%	2%	.	Cc1csc(CNc2ncnc3ccc(-c4cccnc4)cc23)c1	.
0.7%	30%	.	CCN(CC(=O)Nc1ccc2c(c1)OCCO2)CC(=O)Nc1ccc(C)c([N+](=O)[O-])c1	.
7.2%	1%	.	Nc1nonc1-n1nnc(C(=O)N/N=C/c2ccc(Cl)cc2)c1-c1ccc2c(c1)OCO2	-4%
3.8%	1%	5	C=CCNC(=O)c1ccc(C2SCC(=O)N2Cc2ccco2)cc1 (stereo unspecified)	1%
5.6%	12%	.	COc1ccc(CCNC(=O)C(=O)NCC2OCCN2S(=O)(=O)c2ccc(OC)c(OC)c2)cc1OC (stereo unspecified)	3%
3.6%	-1%	-7	Cc1cc(C(=O)CSc2nc3ccccc3o2)c(C)n1C1CC1	-47%
1.0%	15%	.	CCN(CC(=O)Nc1ccc(NC(C)=O)cc1)C(=O)c1ccccc1SCC(=O)N1CCCC1	.
-1.0%	?	-12	O=C(/C(=C/c1ccccc1)n1cncn1)c1ccc(Cl)cc1Cl	-14%
-3.4%	0%	3	Cc1ccc(NC(=O)c2cc([N+](=O)[O-])ccc2N2CCCC2)cc1	-1%
1.2%	1%	1	O=C(O)CSc1nc2sc3c(c2c(=O)n1-c1ccccc1)CCC3	-4%
2.0%	1%	3	CCOC(=O)CCC(NC(=O)CCC(=O)NC(CCC(=O)OCC)C(=O)OCC)C(=O)OCC (stereo unspecified)	0%
0.7%	-6%	-3	Cn1c(CN2CCOCC2)nc2cc(NC(=O)c3ccccc3Cl)ccc21	-9%
0.5%	-13%	.	CC(=O)N1CCC(C(=O)Nc2ccc(S(=O)(=O)N3CCCC(C)C3)cc2)CC1 (stereo unspecified)	.
4.1%	3%	-3	CCOC(=O)c1c(C)sc2c1N(C(=O)CN(CC)CC)c1ccccc1S2	-4%
1.7%	8%	.	Cc1nc2ccc(NC(=O)CSc3ccccc3)cc2s1	.
1.8%	14%	-6	COc1ccc(C/C(O)=C(\C#N)c2nc3ccccc3[nH]2)cc1OC	-3%
2.8%	-6%	-2	Cc1ccc(C(C(=O)NC2CCCC2)N(C(=O)CNC(=O)c2cccs2)c2cccnc2)o1 (stereo unspecified)	-9%
-9.4%	16%	.	O=C(CN1C(=O)CSc2ccc(S(=O)(=O)N3CCCCCC3)cc21)NCCc1ccccc1	.
-0.6%	-6%	-6	COC(=O)c1cccc2nc3c(C(C)O)cccc3nc12 (stereo unspecified)	-3%
?	?	-7	CCN1C(=O)/C(=C/c2ccc(N3CCCC3)cc2)NC1=S	-7%
3.1%	-3%	0	CCOc1ccc(S(=O)(=O)N(CC(=O)NC2CCCCC2C)Cc2ccco2)cc1 (stereo unspecified)	-5%
-0.8%	9%	-2	O=C(NCc1cccs1)C1CCCN1S(=O)(=O)c1ccccc1F (stereo unspecified)	-2%
1.4%	6%	.	COc1cccc(C(=O)Nc2ccc3c(C)cc(=O)oc3c2)c1	-61%
-1.6%	-5%	.	COCc1ccc(C(=O)N2CCCC(Nc3ccc4c(c3)OCCO4)C2)o1 (stereo unspecified)	-6%
1.5%	0%	.	COc1ccc(S(=O)(=O)n2cnc3ccccc32)cc1	-1%
1.4%	-26%	.	C/C=C/c1ccc(OCC(=O)N(C)CC(=O)Nc2ccc(F)cc2)c(OC)c1	.
0.4%	11%	.	CCOC(=O)C1CCN(Cc2ccc(OCc3ccccc3)cc2)CC1	-9%
-1.3%	-7%	5	O=C(O)C1NCCc2ccccc21 (stereo unspecified)	-2%
?	16µM*	.	O=C(Oc1ccc2ccc(=O)oc2c1)c1ccco1	-3%
1.9%	23%	.	C=CCn1c(C)cc(C(=O)COC(=O)c2cncc(Br)c2)c1C	.
0.0%	1%	-2	Cc1cc(C)cc(C(=O)OCC(=O)NCc2cccs2)c1	11%
-1.9%	18%	.	C[C@H](CO)N1C[C@H](C)[C@@H](CN(C)S(=O)(=O)c2ccc(F)cc2)Oc2c(NC(=O)Nc3ccc4c(c3)OCO4)cccc2C1=O	.
-1.3%	8%	.	Cc1oc(-c2cccc(Cl)c2)nc1CS(=O)(=O)CC(=O)NC1CCCC1	2%
1.4%	11%	-2	CCOc1ccccc1N(C(=O)c1ccccc1Cl)C1=NC(C)(C)CS1	6%
-0.2%	-2%	.	CC(=O)c1ccc(OC(=O)CN2C(=O)c3ccccc3C2=O)cc1	3%
-1.3%	9%	-3	Cn1nc(C(=O)N2CCc3ccccc3C2)c2ccccc2c1=O	-10%
6.8%	0%	.	COc1ccc(NC(=O)CCS(=O)(=O)c2ccc(Cl)cc2)cc1	0%
0.7%	-19%	.	COc1ccc(-c2sc3ccc(N4CCOCC4)cc3c2C#CCO)cc1	.
4.3%	-3%	-1	O=C(c1cccc(NS(=O)(=O)c2cccc([N+](=O)[O-])c2)c1)N1CCOCC1	1%
4.2%	12%	-13	O=c1cc(-c2ccc([N+](=O)[O-])cc2)nc2cc(-c3ccc(F)cc3)[nH]n12	-7%
-0.4%	-15%	.	COc1ccc(CNC(=O)C2(CC3CC(c4ccccc4)=NO3)CCN(C(=O)C3CCCC3)CC2)cc1 (stereo unspecified)	4%
-5.2%	41%	-16	CCOC(=O)C1=C(CC)NC2=C(C(=O)CCC2)C1c1ccc(OC)c(OC)c1 (stereo unspecified)	-9%
-3.6%	9%	.	CCCCC[C@H]1CN(CCCC)C(=O)[C@@H]1CC(=O)NCc1ccc(OC)cc1	15%
-1.3%	8%	.	O=C(NCc1ccncc1)C1CCN(C(=O)c2cccc(Cl)c2)CC1	2%
?	-34%	-6	CC1=C(C(=O)Nc2nc3ccccc3s2)C(c2ccco2)C(C#N)=C(SCC(=O)NC2CCCCC2)N1 (stereo unspecified)	15%
-0.3%	9%	.	Cc1ccc(CN2CCSc3ccc(C(=O)NCCCN4CCN(C)CC4)cc32)cc1	-16%
2.1%	4%	.	O=C(NCC1CCCO1)c1ccc(N2C(=O)C3CCCCC3C2=O)cc1 (stereo unspecified)	0%
-5.0%	-4%	2	CCOC(=O)CSc1nc2c(sc(=S)n2-c2ccccc2OC)c(=O)n1Cc1ccco1	-8%
-4.1%	2%	-3	CCOc1nc(CC(C)C)c2c(c1C#N)CC(C)(C)OC2	2%
5.0%	5%	.	O=C(COc1ccc2c3c(c(=O)oc2c1)CCC3)NC1CCN(Cc2ccccc2)CC1	4%
2.2%	-12%	-6	O=C(c1ccc2c(c1)OCO2)N1CCCN(C(=O)c2ccc3c(c2)OCO3)CC1	0%

# Other results
Rango-impB inh	Rango release inh	GLA inh pH 4.5	SMILES	miR-21 reporter
0.2%	8%	.	CN(C)c1ccc(C(=O)N2CCN(C(=O)C3CCCO3)CC2)cc1 (stereo unspecified)	.
-3.2%	23%	6	Cn1cc(S(=O)(=O)N2CCN(c3ccccc3F)CC2)c(=O)n(C)c1=O	0%
-0.7%	27%	-5	COCCNC(=O)C(c1ccc(F)cc1)N(CC1CCCO1)C(=O)CCC(=O)Nc1ccccn1 (stereo unspecified)	-10%
4.4%	2%	-1	O=S(=O)(c1ccc(Cl)cc1)N1CCC(O)(c2cccnc2)CC1	-1%
-2.8%	-9%	1	O=[N+]([O-])c1ccccc1C1Nc2cccc3cccc(c23)N1	7%
-2.7%	0%	4	O=C(CN(c1ccccc1)S(=O)(=O)c1ccccc1)N/N=C/c1ccco1	1%
-2.2%	20%	-12	CCC1=NN2C(=N)/C(=C\c3cccn3-c3cccc(Cl)c3)C(=O)N=C2S1	-6%
-8.3%	-1%	-7	O=C(Nc1cnn(C23CC4CC(CC(C4)C2)C3)c1)c1cc(-c2ccccc2)on1	-1%
0.9%	-6%	.	COCC1CCN(C(=O)CCc2nnc(C3(c4ccc(Cl)cc4)CCC3)o2)CC1	-19%
0.3%	-11%	-10	CCc1ccc2[nH]c(=O)c(CN(CCN(C)C)C(=S)NCc3ccco3)cc2c1	1%
-0.2%	-11%	.	CC(C)(C)OC(=O)N1Cc2[nH]c3ccccc3c2C[C@@H]1C(=O)O	.
-3.2%	18%	.	COc1ccc([C@H]2CC(=O)C=C(c3cc(F)ccc3OC)C2)cc1	.
-2.4%	-15%	4	O=C(NCc1ccco1)C1Cc2ccccc2CN1C(=O)c1ccco1 (stereo unspecified)	-2%
-2.3%	-12%	.	COC(=O)c1c(NC(=O)COC(=O)CCNS(=O)(=O)c2ccc(NC(C)=O)cc2)sc(C)c1C	.
-3.4%	2%	.	O=C(N1CCCC1)N1CCN(S(=O)(=O)c2ccccc2)CC1	-1%
?	?	0	COc1ccc(C2CC(=O)c3sc(N)nc3C2)cc1 (stereo unspecified)	-23%
0.5%	-6%	.	CC1CCc2[nH]c3ccc(C(=O)O)cc3c2C1 (stereo unspecified)	-12%
-4.7%	?	2	O=[N+]([O-])c1nn(-c2ccc3c(c2)OCCO3)n(O)c1=NC1CCCCC1	-45%
0.3%	0%	2	C=CCn1c(COc2ccccc2)nnc1SCC(=O)C(C)(C)C	-3%
3.3%	-25%	3	CCCCCC(=O)Nc1ccc2oc(-c3cncc(Br)c3)nc2c1	-36%
8.4%	9%	-10	O=C(O)CCCN1C(=O)c2ccc(C(=O)c3cccc([N+](=O)[O-])c3)cc2C1=O	5%
4.5%	2%	5	COc1ccc(/C=N/NC(=O)c2cccc([N+](=O)[O-])c2)cc1OC(=O)c1ccc(C)cc1	8%
-0.3%	-15%	-10	Clc1ccc(-c2nnc3sc(Cc4cccs4)nn23)cc1	-11%
-1.4%	25%	.	NC(N)=N/N=C/c1ccc(OS(=O)(=O)c2ccccc2)cc1	18%
-5.8%	12%	6	Cc1ccc(CN2CCN(Cc3nc4ccccc4nc3C)CC2CCO)cc1 (stereo unspecified)	-4%
-2.3%	?	-1	C#CCSc1nc(N)c2c(n1)OC(N)=C(C#N)C2c1cccnc1 (stereo unspecified)	4%
1.0%	3%	-1	CCCN1CCN(c2nc3c([nH]2)c(=N)ncn3CC(O)CO)CC1 (stereo unspecified)	0%

# Source: PubChem
